# Screening data: PubChem BioAssay, several laboratories
# UCH37 inh – inhibitors of human deubiquitinating enzyme UCH37 | purified proteasome/UCH37, Ub-AMC cleavage fluorescence | actives 0.33% (n = 330,000) | inhibition, % (concentration not given with the values) | Q9Y5K5;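 active means mean of two replicates above 20%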;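 further: 0% = compound-free wells with enzyme and 100% = wells lacking proteasome; stock transfer was 100 nL into about 20 µL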
#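 Test system – human UCH37 enzyme supplied as purified proteasome complex · Incubation – 30 min preincubation with enzyme, 25 min cleavage at room temperature · Detection – AMC fluorescence from Ub-AMC cleavage, excitation 355 nm, emission 460 nm · Benchmarks – no-proteasome wells (full inhibition) and compound-free wells (no inhibition)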
# Ecoli growth – inhibitors of Escherichia coli growth. OD600, 23 h; stronger effect = lower value. OD600 absorbance (test concentration not listed). actives 0.21% (n = 330,000);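 active means OD600 absorbance below the run mean of sample wells minus 3.6 SD, in any replicate, cut at about 0.56 in these data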;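 further: stock transfer was 300 nL into about 60 µL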
# LANA-H2B inh – blocks KSHV LANA binding to histone H2A/H2B. inhibition, % (no concentration beside the values). cell-free LANA-H2A/H2B peptide, fluorescence polarization. Q9QR71. actives 0.6% (n = 320,000). AID 2629; in the data active means inhibition mostly above about 10%, no sharp cut-off; inactive means mostly below about 6.7%;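 further: stock transfer was 7.5 nL into about 10 µL; 0% = median of vehicle wells and 100% = median of positive control wells; one replicate is shown; the record names a cut of 25% in any replicate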
# Target sequence (Q9QR71 whole entry, looked up): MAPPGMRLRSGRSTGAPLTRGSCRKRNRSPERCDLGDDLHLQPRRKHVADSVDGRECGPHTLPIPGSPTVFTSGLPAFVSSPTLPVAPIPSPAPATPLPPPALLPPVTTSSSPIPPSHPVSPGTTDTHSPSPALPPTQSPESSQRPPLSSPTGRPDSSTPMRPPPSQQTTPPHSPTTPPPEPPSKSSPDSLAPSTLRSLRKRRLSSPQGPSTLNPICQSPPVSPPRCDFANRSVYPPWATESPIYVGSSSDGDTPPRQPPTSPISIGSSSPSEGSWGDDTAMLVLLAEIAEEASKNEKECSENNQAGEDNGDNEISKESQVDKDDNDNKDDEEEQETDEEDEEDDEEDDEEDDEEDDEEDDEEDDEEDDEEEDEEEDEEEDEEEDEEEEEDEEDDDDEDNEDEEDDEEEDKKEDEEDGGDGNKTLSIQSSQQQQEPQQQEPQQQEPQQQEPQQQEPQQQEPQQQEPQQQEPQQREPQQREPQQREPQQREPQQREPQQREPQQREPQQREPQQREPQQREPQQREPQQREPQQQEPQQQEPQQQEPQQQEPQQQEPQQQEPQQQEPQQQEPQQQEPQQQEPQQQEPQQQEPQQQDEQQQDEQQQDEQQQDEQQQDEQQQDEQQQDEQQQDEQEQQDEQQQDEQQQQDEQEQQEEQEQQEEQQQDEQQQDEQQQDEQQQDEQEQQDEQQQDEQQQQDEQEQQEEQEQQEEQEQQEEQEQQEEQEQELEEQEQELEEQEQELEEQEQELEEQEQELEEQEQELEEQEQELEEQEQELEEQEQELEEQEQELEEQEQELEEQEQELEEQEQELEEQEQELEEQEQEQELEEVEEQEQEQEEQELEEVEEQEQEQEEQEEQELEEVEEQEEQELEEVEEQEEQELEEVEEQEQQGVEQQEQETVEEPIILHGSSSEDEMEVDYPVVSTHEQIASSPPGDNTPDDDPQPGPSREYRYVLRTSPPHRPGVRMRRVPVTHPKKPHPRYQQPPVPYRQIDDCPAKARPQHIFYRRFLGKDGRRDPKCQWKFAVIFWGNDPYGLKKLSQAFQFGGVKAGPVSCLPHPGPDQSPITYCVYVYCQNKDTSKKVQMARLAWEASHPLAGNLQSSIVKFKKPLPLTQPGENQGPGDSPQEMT
# HNF4A DNA FP – change in binding of human HNF4 alpha to DNA; activity change, % at 10 µM; HNF4a-FITC DNA binding, fluorescence polarization, 1 h; P41235; actives 0.3% (n = 360,000); in the data active means activity change above about 30%, passing the limit was not always enough;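 further: controls were the assay level and a saturating level of protein; the project sought stronger binding though the title names inhibitors; some compounds called inactive have numbers as strong as hits; positive values seem to mean higher polarization but the record does not say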
# FGF22 binding – FGF22 (human) thermal shift binding | Q9HCT0 | recombinant FGF22 thermal shift, SYPRO orange fluorescence; percent of sucrose octasulfate shift, DMSO zero | calls only at 9.99 µM | actives 1.5% (n = 340,000);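 active means melting point raised past a set limit in the mean and every replicate; inconclusive means no clear call; three in four hits are not shown here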
# B2AR ag – human beta-2 adrenergic receptor agonism by FAP. P07550. Am2.2-beta2AR cells, FAP receptor internalization, flow cytometry; reference of the scale not given here. response, % (concentration not given with the values). actives 0.43% (n = 340,000). AID 504454;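 active means response above a set limit, near 3 SD of response in nonfluorescent compounds, cut at about 42% in these data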;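 further: stock transfer was 100 nL into about 11 µL; a reference agonist was the positive control; negative values mostly stem from fluorescent compounds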
# ALR inh – blocks human ALR sulfhydryl oxidase activity. P55789. purified ALR, DTT oxidation, H2O2 HRP-luminol luminescence. inhibition, % (test concentration not listed). actives 3.8% (n = 290,000). AID 485317;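 active means mean and each replicate at 75% or more; inconclusive means only one of the two met; inactive means neither met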;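 further: stock transfer was 7.5 nL into about 7.5 µL; 0% = neutral wells and 100% = wells with inactivated enzyme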
# * = called active by the depositor; i = inactive; ? = inconclusive; . = no result given; + = active, no number. Some of the compounds tested. The share of hits here may be higher or lower than overall.
SMILES,UCH37 inh,Ecoli growth,LANA-H2B inh,HNF4A DNA FP,FGF22 binding,B2AR ag,ALR inh
Cc1ccc(C(=O)NCC(=O)Nc2ccc3c(c2)CCC3)cc1C,1.6,0.72,.,-4.3,i,2,.
COc1cc(NC(=S)N2CCOCC2)c(OC)cc1Cl,4.4,0.65,3.9,-3.3,i,2,-33
CC(C)CN(C(=O)c1ccc(=O)n(C)n1)c1nc2ccccc2s1,1.5,0.67,4.5,3.3,.,-13,-7
N#Cc1c(-c2ccc(Br)cc2)nc2n(c1=O)CCCS2,0.1,0.64,-0.6,2.8,.,-9,-4
Cc1noc(NS(=O)(=O)c2ccc(N/C=C\C(=O)c3ccc(Br)cc3)cc2)c1C,11,0.59,-1.0,3.3,i,10,53
Cc1cc2nc(CCN(C(=S)NCC(C)C)C3CCCC3)[nH]c2cc1C,4.4,0.68,-4.3,-1.3,.,11,-4
Cn1c(=O)c2c(nc(N/N=C/c3cccnc3)n2Cc2ccc(F)cc2)n(C)c1=O,.,.,-1.9,0.7,i,-13,15
O=C(c1cc(C(=O)N2CCN(c3ccc(F)cc3)CC2)cc([N+](=O)[O-])c1)N1CCN(c2ccc(F)cc2)CC1,1.8,0.64,-2.5,3.0,i,10,-2
CS(=O)(=O)n1nc(-c2ccc(Cl)cc2)nc1SCc1ccccc1,4.5,0.7,-3.7,1.6,.,7,-2
COc1cccc(/C=N/NC(=O)CNC(=O)C2COc3ccccc3O2)c1O (centres undefined),.,.,.,4.3,i,12,.
C[C@@H]1C(c2ccc(F)cc2)=NN(c2ccc(Br)cc2)[C@H]1C(=O)N1CCOC1=O,-106,0.72,.,-1.2,i,8,.
COc1ccc(NC(=O)[C@H](CCS(C)(=O)=O)N2Cc3ccccc3C2=O)c(OC)c1,7.5,0.72,1.7,4.7,i,7,-8
COC(=O)c1c(NC(=O)CSc2nnc3ccccn23)sc2c1CCC2,2.9,0.64,-1.9,-2.2,i,-8,3
COc1ccc(-c2csc(NC(=O)CN3C(=O)C4CCCCC4C3=O)n2)c(OC)c1 (centres undefined),4.0,0.65,-3.4,1.6,+,12,2
COc1cccc(C(=O)C2CCCN(Cc3ccc(OC)c(Cn4cncn4)c3)C2)c1 (centres undefined),4.6,0.66,-0.8,1.6,i,3,.
CCOC(=O)c1c(C)[nH]c(C)c1-c1ccccc1OC,0.2,0.7,1.6,3.6,.,1,14
O=C(Cc1ccccc1)Nc1ccnn1C1CCN(Cc2ccc(CO)o2)CC1,0.3,0.73,1.6,2.9,i,3,-8
COc1ccc(-c2nn(-c3ccccc3)cc2C(=O)Nc2cccc(S(=O)(=O)NC3=NCCC3)c2)cc1,-3.1,0.72,-1.9,-1.4,i,26,-5
COc1ccc(Cn2c(=O)[nH]c3cc(C(=O)NCCCN4CCCCC4)ccc3c2=O)cc1,2.7,0.7,1.3,4.4,.,16,6
O=C(c1cn(-c2ccccc2)nc1-c1cccnc1)N1CCCC(C(F)(F)F)C1 (centres undefined),2.4,0.71,-0.8,0.8,i,-5,4
O=c1[nH]cc(S(=O)(=O)N2CCOCC2)c(=O)[nH]1,4.6,0.69,-2.2,1.1,i,9,-4
O=C(CSc1nnc(-c2ccccc2F)n1C1CCCCC1)N1CCCC1,-0.1,0.71,-0.4,-2.8,.,-19,-10
COc1ccccc1CCNC(=O)CCCn1nc(C)c2c(C)n(-c3ccc(C)cc3)nc2c1=O,1.3,0.74,-3.6,2.9,i,-8,-5
CC(=O)Nc1ccc(S(=O)(=O)Oc2ccc(C=O)cc2)cc1,5.3,0.72,-1.5,4.9,.,4,-4
COc1ccc(CCNC(=O)CN2C(=O)NC3(CCc4ccccc43)C2=O)cc1 (centres undefined),1.1,0.7,-0.6,-0.9,i,-2,.
NC(=O)NOCc1ccccc1,2.6,0.7,0.1,2.0,i,13,-4
Cn1c(=O)c2[nH]c(SCC(=O)c3ccc(F)cc3)nc2n(C)c1=O,3.0,0.65,4.3,2.6,i,-1,20
CC1(CCc2ccccc2)NC(=S)N(c2ccc(Cl)cc2)N1 (centres undefined),5.0,0.7,7.0,0.9,.,3,94*
COCCNC(=O)CN1C(=O)NC2(CCCc3cc(OC)ccc32)C1=O (centres undefined),2.2,0.68,-4.7,-2.2,i,-4,-4
CCc1ccccc1Oc1ccc(S(=O)(=O)N2CCN(C)CC2)cn1,-0.8,0.64,-9.3,3.4,i,-1,-23

# With a hit mark in FGF22 binding (from the list above):
SMILES,UCH37 inh,Ecoli growth,LANA-H2B inh,HNF4A DNA FP,FGF22 binding,B2AR ag,ALR inh
COc1ccc(-c2csc(NC(=O)CN3C(=O)C4CCCCC4C3=O)n2)c(OC)c1 (centres undefined),4.0,0.65,-3.4,1.6,+,12,2

# The list goes on.
SMILES,UCH37 inh,Ecoli growth,LANA-H2B inh,HNF4A DNA FP,FGF22 binding,B2AR ag,ALR inh
O=C(O)c1ccc(C2Nc3ccccc3C(=O)N2Cc2ccccc2)cc1 (centres undefined),-335,0.71,-14,-2.7,i,-18,2
Cc1cccc(C(C)C)c1NC(=O)COC(=O)Cc1ccsc1,3.5,0.7,-1.8,-3.8,i,2,-12
C/C(=N\NC(N)=S)C1C2C3CC4C5CC(C42)C1C53 (centres undefined),.,.,4.1,0.4,.,2,-3
COc1cc2c(cc1OC)CN(S(=O)(=O)/C=C/c1ccccc1)CC2,-3.4,0.69,-3.0,-0.8,i,-1,.
NC(=O)N/N=C/c1ccc2cccc(OCc3ccccc3)c2n1,.,.,-2.3,4.5,i,-6,-4
COc1ccc(NC(=O)NCCCN2CCN(c3ccccc3F)CC2)cc1,2.8,0.68,0.1,15,i,-5,.
Cc1cc(C)c(C(=O)COC(=O)[C@H](C)Nc2ccc(C(F)(F)F)cc2[N+](=O)[O-])c(C)c1,6.1,0.69,-2.8,1.7,.,-5,2
CSc1nnc(-c2cc3c(-c4ccccc4)nn(C)c3s2)n1C,0.8,0.71,-4.7,0.3,.,-9,-13
COCCCNC(=S)N/N=C/c1ccc2ccccc2c1,.,.,-3.2,1.8,i,-3,-14
CCOC(=O)N1CCN(CC(O)COc2ccc(C)c(C)c2)CC1 (centres undefined),2.6,0.67,-3.6,-0.5,i,11,1
Cc1cccc2cc(CN(Cc3nnnn3Cc3ccccc3)C3CCCC3)c(=O)[nH]c12,2.3,0.7,-4.3,1.1,.,12,-1
CC(C)COc1ccc(C(=O)Nc2scc(-c3ccc(Cl)cc3Cl)c2C(N)=O)cc1,-150,0.68,3.7,-3.3,.,-4,7
CCN(C[C@H]1N[C@@](C)(C(=O)OC)[C@H]2C(=O)N(C)C(=O)[C@@H]12)C(=O)Nc1ccccc1,4.8,0.7,4.2,0.7,i,1,.
COc1cccc(/C=C2\N=C(c3c(-c4ccccc4)noc3C)OC2=O)c1OC,-18,0.71,6.9,-3.8,.,7,0
COc1cccc(NC(=O)CSc2nnc(Cc3ccc(C)cc3)c(=O)n2N)c1,0.4,0.68,-5.2,-1.4,i,12,99*

# Random excerpt: 3 records from the list.
SMILES,UCH37 inh,Ecoli growth,LANA-H2B inh,HNF4A DNA FP,FGF22 binding,B2AR ag,ALR inh
CSc1nnc(-c2cc3c(-c4ccccc4)nn(C)c3s2)n1C,0.8,0.71,-4.7,0.3,.,-9,-13
Cc1cccc2cc(CN(Cc3nnnn3Cc3ccccc3)C3CCCC3)c(=O)[nH]c12,2.3,0.7,-4.3,1.1,.,12,-1
COCCCNC(=S)N/N=C/c1ccc2ccccc2c1,.,.,-3.2,1.8,i,-3,-14

# Later entries
SMILES,UCH37 inh,Ecoli growth,LANA-H2B inh,HNF4A DNA FP,FGF22 binding,B2AR ag,ALR inh
Cc1ccc(S(=O)(=O)N2C(=O)CCC2C(=O)N2CCN(C)CC2)cc1 (centres undefined),2.6,0.72,-4.2,5.4,.,2,-1
O=C(N/C(=C/c1ccco1)C(=O)N1CCOCC1)c1ccccc1Br,4.1,0.67,-2.1,3.6,i,5,-6
C=CCn1c(SCc2cc(=O)n3cc(C)ccc3n2)nnc1-c1cccc(C)c1,-2.2,0.7,1.0,-1.1,.,-18,-5
CCOc1cccc(C(=O)Nc2cccc(NC(=O)c3ccco3)c2)c1,6.0,0.7,3.6,-1.1,+,6,.
Oc1ccccc1CNc1ccc(OC(F)(F)F)cc1,3.5,0.6,3.9,0.7,i,3,15
COc1ccccc1Cn1cccc1C=O,0.1,0.71,-1.2,4.7,i,4,-3
CCN1C(=O)[C@H]2[C@@H](c3ccc(-c4ccc(OC)cc4)c(OC)c3)N[C@@](C)(C(=O)OC)[C@H]2C1=O,-2.1,.,5.6,1.7,i,0,-3
COCCNC(=O)c1ccc(CS(=O)(=O)c2cccc(C(F)(F)F)c2)o1,5.0,0.67,-5.0,4.9,i,-2,.
CCO[C@@H]1OC(C(=O)NCc2nc3ccccc3[nH]2)=C[C@H](c2ccccc2)[C@H]1CCCO,0.0,.,1.5,0.5,i,-3,-5
O=C(CN1CCCCC1)Nc1nc(-c2ccc(F)c(F)c2)cs1,5.9,0.64,-0.2,2.9,i,5,8
CSc1ccccc1NC(=O)CN(C)C(=O)CNc1ccc(C(F)(F)F)cc1[N+](=O)[O-],0.5,0.69,1.6,-5.7,i,-4,-2
Cc1cc(C)c(OCCCCNCc2ccccc2)c(Cl)c1,0.7,0.64,0.9,0.1,.,14,-9
COC(=O)C(C(=O)OC)c1ncccc1[N+](=O)[O-],3.2,0.68,1.4,-1.9,i,12,-25
CN(C)CCNc1oc(/C=C/c2ccccc2)nc1C#N,i,0.69,-5.9,2.4,.,4,?
N=c1c(-c2nc3ccccc3[nH]2)cc(C(=O)c2cccs2)nn1-c1ccc(Cl)cc1,9.2,0.69,1.8,.,.,.,3
CCCc1nc2n[nH]c(N)c2c2c1COC(C)(C)C2,4.3,0.7,-1.2,2.6,.,0,55
O=C(Nc1ccc(Cl)cn1)c1ccc2[nH]c(=O)c(=O)[nH]c2c1,0.7,0.71,3.2,-3.1,i,-9,-1
C[C@H]1CN(Cc2ccccc2)C(=O)[C@@H]1CC(=O)NCc1ccccc1,1.8,.,7.7,-3.1,i,-2,-2
Cn1c(O)c(C=Nc2ccc(Br)cc2)sc1=O,1.9,0.7,-5.0,-3.4,i,7,-9
CCN(/N=C/c1cccs1)c1cc(=O)n(C)c(=O)[nH]1,.,.,0.4,1.4,.,-13,-43
COc1cccc2cc(-c3nnc(SCC(=O)Nc4nc(C)cs4)n3C)oc12,-0.4,0.7,0.4,-2.3,.,11,-10
CCOC(=O)C(CC(=O)O)=C(c1ccccc1)c1ccccc1,0.3,0.69,1.0,0.3,i,-12,-4
[O-][n+]1c2c(nn1-c1ccccc1)/C(=N/O)CCC2,.,.,1.8,2.5,i,5,-15
CSc1cccc(NC(=S)N(C(C)C)C(C)c2ccccn2)c1 (centres undefined),-0.1,0.71,-2.1,-3.2,i,3,-5
CCn1cc(CNC(=S)Nc2cccc(Cl)c2C)cn1,2.4,0.66,1.6,-3.7,i,-2,.
CN(c1ccc(OCC(=O)OCC(=O)NC2CCCC2)cc1)S(=O)(=O)c1ccc2ccccc2c1,-4.0,0.71,-0.4,1.6,i,8,-25
CC(C)CCn1c(CN2CCN(Cc3ccccc3)CC2)nc2c1c(=O)n(C)c(=O)n2C,3.4,0.7,3.6,-0.1,.,-7,-9
COc1cc2c(cc1OC)C(C)N(C(=O)[C@@H](NC(=O)c1ccccc1)C(C)C)CC2 (some centres undefined),3.1,0.69,3.5,-2.9,i,2,-4
COc1ccc(-c2cnn3cc(-c4cccc(Cl)c4)cnc23)cc1,4.7,0.67,0.7,-0.8,i,-4,.
COc1ccc(CNc2ccc([N+](=O)[O-])cn2)cc1,3.3,0.66,6.3,6.1,i,40,-9
CC1=C(C(N)=O)C(c2ccc(Cl)cc2)NC(=O)N1 (centres undefined),2.9,0.67,-6.9,1.8,.,4,-11

# Quoted from the listing:
# CN(C)CCNc1oc(/C=C/c2ccccc2)nc1C#N | LANA-H2B inh = -5.9
# N#Cc1c(-c2ccc(Br)cc2)nc2n(c1=O)CCCS2 | LANA-H2B inh = -0.6
